N370S GC: qHTS Assay for Inhibitors and Activators of N370S glucocerebrosidase as a Potential Chaperone Treatment of Gaucher Disease; Lysosomal acid glucosylceramidase (Homo sapiens), P04062; N370S GC spleen homogenate, 4MU-glucoside fluorescence; Potency, µM (series often up to 59.4 µM), for inactives: at the highest dose activity change, negative = inhibition, actives largely listed as inhibitors; 330,000 compounds, 0.092% hits; AID 2101, 2009;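 note: 0% = full enzyme activity and -100% = no enzyme basal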
TDP1 inh: qHTS Assay for Inhibitors of Tyrosyl-DNA Phosphodiesterase (TDP1) | Tyrosyl-DNA phosphodiesterase 1 (Homo sapiens), Q9NUW8 | recombinant TDP1, AlphaScreen DNA substrate cleavage | Potency, µM (highest dose often 130 µM), for inactives: top-dose activity change, negative = inhibition, hits mostly inhibitors | 350,000 compounds, 0.28% hits | AID 485290, 2010; note: nearly all actives have a fitted effect of over 40% in size
Target sequence (Q9NUW8 whole entry, looked up): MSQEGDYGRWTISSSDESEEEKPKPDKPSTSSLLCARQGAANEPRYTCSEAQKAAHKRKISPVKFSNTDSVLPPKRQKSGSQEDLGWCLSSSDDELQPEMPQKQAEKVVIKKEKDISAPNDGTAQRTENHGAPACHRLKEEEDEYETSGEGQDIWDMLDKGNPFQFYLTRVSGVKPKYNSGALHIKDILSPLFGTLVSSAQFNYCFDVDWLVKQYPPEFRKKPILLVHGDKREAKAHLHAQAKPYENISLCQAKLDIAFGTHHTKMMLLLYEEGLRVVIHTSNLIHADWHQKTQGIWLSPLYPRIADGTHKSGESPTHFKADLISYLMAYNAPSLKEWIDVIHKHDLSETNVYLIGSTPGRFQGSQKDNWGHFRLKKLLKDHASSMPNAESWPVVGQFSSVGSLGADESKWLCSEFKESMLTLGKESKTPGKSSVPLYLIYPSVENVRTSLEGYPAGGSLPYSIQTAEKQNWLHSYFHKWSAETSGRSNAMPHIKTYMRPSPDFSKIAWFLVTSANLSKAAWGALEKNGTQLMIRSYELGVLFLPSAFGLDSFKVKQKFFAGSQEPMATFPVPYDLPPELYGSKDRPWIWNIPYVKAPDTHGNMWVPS
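E. coli-derived human Tdp1, 1 nM final. Cpd preinc 15 min RT; substrate 15 nM final, 5 min RT; AS bead mix 10 ug/ml final, 10 min RT. Signal loss = tyrosine-FITC cleavage. No-enzyme wells = max signal.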
Active calls of the source: *; ? = inconclusive; . = no result given; & = joins results of further samples; [ ] = dose if it differs, or a comment. Calls come from the whole dose curve; as a rule, active = well fitted curve in the direction sought with a large enough effect; inconclusive = small, poorly fitted or top-dose-only effect, or another doubt; inactive = no such curve, though single readings can be large; an effect the other way counts as inactive or inconclusive. Unless noted, % is set by controls: 0 for no effect and ±100 for the full control effect; potency is the fitted concentration of half-maximal effect. Some of the compounds tested; most or all hits stand in other tables.

Compound	N370S GC	TDP1 inh
O=C(C1=C[C@@H](c2ccc(C(F)(F)F)cc2)C[C@@H](OCc2ccc(CO)cc2)O1)N1CCOCC1	18.4%	10.3%
CCOC(=O)Nc1ccccc1N1C(=O)c2ccccc2C1=O	7.3%	4.4%
CC(=O)c1ccc(N2CCN(C(=O)c3noc4c3CSc3ccccc3-4)CC2)cc1	-14.4%	1.0%
CCCNC(=O)C1CCN(S(=O)(=O)c2c(C)noc2/C=C\c2ccc(OC)cc2)CC1	2.3%	-1.3%
O=S(=O)(c1cc(Cl)ccc1Cl)N1CCNCC1	-6.9%	3.6%
O=C(NNC(=O)C1CCN(Cc2ccccc2)CC1)c1cccc(Cl)c1	-2.3%	2.8%
O=C(Cn1cc2c(n1)CCCC2)N1CCCc2ccccc21	-5.1%	8.7%
O=C(Nc1cccc(S(=O)(=O)N2CCCCC2)c1)C1COc2ccccc2O1 (stereo unspecified)	.	0.7%
C/C(=N\OCc1cccc(C(=O)O)c1)c1ccc(Cl)cc1	0.8%	3.7%
CCc1ccc(CCC(=O)Nc2nc(CC(C)=O)ns2)o1	-8.0%	0.0%
CCN(CC)C(=O)C1CCCN(c2ncnc3c2cnn3-c2ccc(Cl)cc2)C1 (stereo unspecified)	1.8%	.
Cc1ccc(C(C(=O)NC2CCCCC2)N(C(=O)c2csnn2)C2CC2)o1 (stereo unspecified)	-12.9%	5.7%
COc1ccc(-n2c(-c3ccco3)nc3c(cnn3-c3ccccc3C)c2=O)cc1	?	6.0%&2.3%
NCCCCCc1nnc(SCC(=O)c2ccc(Cl)cc2)o1	6.5%	-3.8%
Cc1c(C=O)c2ccccn2c1C(=O)c1ccccc1Cl	-5.3%	.
Cn1c(CNc2ccc(F)cc2)nnc1SCC(=O)NNC(=O)Cc1ccccc1	-7.8%	2.5%
CC(C)(C)c1cc(C(=O)NNS(=O)(=O)c2ccccc2)n[nH]1	-8.2%	5.0%
O=C(CC1CCOCC1)Nc1ccc(Cl)c(Cl)c1	-1.6%	-3.6%
CCN1CC(CN(C)Cc2nc(Cc3ccccc3)no2)CC1=O (stereo unspecified)	4.3%	0.0%
CCOC(=O)Cc1cc(=O)c2cc(C)ccc2[nH]1	-3.9%	.
CCOC(=O)/C(C#N)=C\c1cccnc1	10.9%	-7.2%
Cc1noc(C(=O)NCc2ccccc2)c1Cl	3.3%	3.9%
CCCCN(C)CCC(=O)Nc1ccc2c(c1)CCC2	5.2%	2.8%
COc1ccccc1C(=O)Nc1ccc(C)c(S(=O)(=O)N2CCCCC2)c1	-1.1%	-0.1%
CC(C)NS(=O)(=O)c1ccc(CCC(=O)Nc2cc(Cl)ccc2Oc2ccccc2)cc1	?	5.7%
CCOC(=O)n1c(SCC(N)=O)nc2ccccc21	22.1%	6.2%
Cc1cc(C)nc(NC(=O)c2cccc(Br)c2)n1	-0.8%	.
CCOC(=O)CSc1cc(C)nc2ccc(OC)cc12	0.2%	2.8%
COC(C(=O)Nc1ccnn1C1CCN(Cc2ccc(Cl)s2)CC1)c1ccccc1 (stereo unspecified)	-5.6%	3.9%
Cc1ccc(C(C)C)c(OC(C)C(=O)NCC2(N(C)C)CCCCC2)c1 (stereo unspecified)	.	0.5%
Cc1ccc(N(C(C)C(=O)Nc2c(C)n(C)n(-c3ccccc3)c2=O)S(C)(=O)=O)cc1C (stereo unspecified)	-0.4%	2.7%
Cc1cccc(N2CC3=C(C2=O)C(c2ccccc2)NC(=O)N3C)c1 (stereo unspecified)	-8.4%	6.3%
CC(=O)c1ccc(NC(=O)c2ccc(COc3ccccc3[N+](=O)[O-])o2)cc1	1.5%	1.1%
CCOC(=O)C1CCCN(CCC(=O)Nc2cccc(F)c2)C1 (stereo unspecified)	-17.4%	-4.2%
CC(=O)c1ccc(N2CCN(S(=O)(=O)c3c(C(=O)N4CCCCC4)c(C)n(C)c3C)CC2)cc1	-4.5%	-8.4%
COc1ccccc1C(=O)NC(=S)NC12CC3CC(CC(C3)C1)C2	0.3%	4.6%
Cc1cc(NC(=O)c2ccc(F)cc2)n(-c2ccccc2)n1	1.0%	.
CSc1ccccc1OCc1cc(C(=O)NCCCn2nc(C)cc2C)no1	-12.2%	2.9%[56.1 µM]
CC(=O)c1c(C)[nH]c(C(=O)O)c1C	0.3%	6.0%
CC(C(=O)OCC(=O)c1cccc([N+](=O)[O-])c1)N1C(=O)C2C3C=CC(C3)C2C1=O (stereo unspecified)	0.2%	.
COC(=O)COc1cc2ccccc2cc1C(=O)Nc1ccccc1	-2.8%	-1.2%
CC1=C(C(=O)OCC2CCCCC2)C(c2ccc(O)cc2)NC(=O)N1 (stereo unspecified)	-6.2%	.
Cc1cccc2sc(NS(C)(=O)=O)nc12	9.7%	-5.1%
C/C(=N\Nc1ccc(Cl)c(C(=O)O)c1)c1ccccn1	0.1%	9.6%
C/C(=N\Nc1ccccc1C)c1cccnc1	-14.1%	.
COc1cc(C(=O)N/C(=C\c2cn(C)c3ccccc23)C(=O)NCCCn2ccnc2)cc(OC)c1OC	5.5%	3.7%
Cc1csc(CNc2ncnc3ccc(-c4ccc5c(c4)OCO5)cc23)c1	-13.1%	2.8%
CCC(Sc1nc2cc(OC)c(OC)cc2c(=O)n1CCc1ccc(OC)c(OC)c1)C(=O)NCCOC (stereo unspecified)	1.7%	-1.1%
CC[C@]12c3[nH]c4ccc(Cl)cc4c3CCN1C(=O)[C@@H](CC(=O)NCCCOC)C[C@@H]2C(=O)N1CCN(C(=O)c2ccco2)CC1	.	0.1%[56.1 µM]
Cc1c(C#N)c2ncn(CCCN(C)C)c(=O)c2n1-c1ccccc1	-21.3%	5.9%
COc1ccc(NC(=O)CCc2ccccc2)cc1S(=O)(=O)N1CCOCC1	.	-0.1%
COc1cc2c(cc1NC(=O)CSCC(=O)O)oc1ccccc12	3.9%	2.1%
CCOC(=O)C1CCCN(Cc2ccc3c(c2)OCO3)C1 (stereo unspecified)	21.9%	-0.1%[56.1 µM]
N#Cc1ccsc1NC(=O)C1CCN(C(=O)c2ccc(F)cc2)CC1	.	0.5%
COc1cc2c(cc1OC)C(C)N(C(=O)Cn1ncc3c1-c1cc(C)ccc1OC3)CC2 (stereo unspecified)	0.9%	6.5%
COC(=O)c1ccccc1NC(=O)N1c2ccccc2Sc2ccccc21	?	1.1%
COc1ccc(Cl)cc1N(C(=O)c1ccco1)C(C(=O)NC1CCCC1)c1ccncc1 (stereo unspecified)	-8.5%	.
Cc1nc2n(n1)CC(O)CS2 (stereo unspecified)	3.4%	-1.0%
O=C(O)c1ccc(C2(c3ccc(C(=O)O)cc3)OC(=O)c3ccccc32)cc1	0.3%	.
Cc1sc2nc(C)n(/N=C/N(C)C)c(=O)c2c1C	6.6%	-6.2%

(next part)
Compound	N370S GC	TDP1 inh
COc1ccc(-c2nsc(SCC(=O)NCC3CCCO3)n2)cc1 (stereo unspecified)	-4.4%	8.4%
COCC(=O)N1CCCC(C(=O)c2ccc3c4c(cccc24)CC3)C1 (stereo unspecified)	1.7%	5.1%
Cc1nnsc1C(=O)Nc1cccc(Cl)c1C	8.4%	5.8%
CC(=O)Oc1ccc2c(=O)c(N3C(=O)c4ccccc4C3=O)c(C)oc2c1C	7.0%	1.2%
Cc1ccc(NC(=O)C(=O)c2ccc(C)cc2)cc1	-1.4%	-12.2%
O=C1CCNCCN1[C@H](CO)c1ccccc1	4.2%	.
CC(C)c1ccc(C(=O)NC(=S)Nc2ccc3[nH]c(=O)[nH]c3c2)cc1	-4.7%	8.2%
CC1CCCC(C)N1/N=C/c1ccc(N(C)C)cc1 (stereo unspecified)	-2.0%	1.2%
Cc1nc2sc(-c3ccccc3)cc2c(=O)[nH]1	17.6%	-3.9%
CCCn1nc(C(=O)OCC(=O)Nc2ccc(C(N)=O)cc2)c2ccccc2c1=O	.	0.0%
CCCS(=O)(=O)N1CCCC(C(=O)NCCN(CC)c2ccccc2)C1 (stereo unspecified)	-7.3%	4.8%
O=C1c2ccccc2C(=O)N1CCC(c1ccc(F)cc1)c1ccco1 (stereo unspecified)	3.0%	3.1%
O=C(NCCNc1nccc(C(F)(F)F)n1)c1cccc(C(F)(F)F)c1	-18.7%	5.0%
Cc1ccccc1OCCCC(=O)Nc1ccccc1C(F)(F)F	3.3%	3.2%
COc1cccc(C(=O)N2CCN(Cc3ccccc3[N+](=O)[O-])CC2)c1	2.2%	-5.8%
O=C(CC1C(=O)NCCN1Cc1ccc(F)cc1Cl)NCc1ccon1 (stereo unspecified)	11.3%	3.9%
COc1ccc(C2CC(c3ccc(OC)c(OC)c3)=NN2C(=O)c2ccccc2)cc1 (stereo unspecified)	29.7%	.
Cc1occc1C(=O)Nc1cc(S(=O)(=O)N2CCOCC2)ccc1OC(C)C	.	2.6%
Cn1cnnc1SCC(=O)NC1CCCc2ccccc21 (stereo unspecified)	7.9%	2.5%
O=C(Nc1ccc2ccccc2c1)c1ccc(Br)o1	26.3%	4.3%
CCc1ccc(N(C(=O)C(F)(F)F)C(C(=O)NC2CCCCC2)c2ccncc2)cc1 (stereo unspecified)	-0.6%	0.0%
O=C(NCc1ccccc1)c1cc(-c2ccncc2)nc2ccccc12	-9.8%	.
O=C(CSc1nnnn1C1CCCCC1)Nc1cccc(NC(=O)c2ccco2)c1	0.9%	5.7%
Cc1ccc(N(C(=O)c2ccncc2)C2C=CS(=O)(=O)C2)cc1 (stereo unspecified)	3.0%	5.3%
Cc1ccc(CNC(=O)c2ccc(Cl)c(S(=O)(=O)N3CCCCC3)c2)cc1	.	0.1%
CC(C)(C)NC(=O)Nc1ccc(Br)cc1	-12.9%	.
COC(=O)c1ccc(C2/C(=C(\O)c3ccc4c(c3)OCCO4)C(=O)C(=O)N2CCCN2CCOCC2)cc1 (stereo unspecified)	3.8%	4.7%
Cc1ccc(C(=O)N/C(=C/c2ccco2)C(=O)NCc2ccco2)cc1	1.6%	.
COc1ccc(NC(=O)C2CCN(c3nc(C)cc(C)n3)CC2)cc1	4.1%	-4.4%
Cc1cc(C(=O)CCl)c(C)n1CC1COc2ccccc2O1 (stereo unspecified)	10.6%	7.7%
CSc1cccc(NC(=O)c2cc3c(COC(C)=O)cnc(C)c3oc2=O)c1	.	-1.2%
CCn1c(=O)c2sccc2n2c(CCCC(=O)NCCc3ccc(S(N)(=O)=O)cc3)nnc12	5.5%	1.2%
COc1ccc(S(=O)(=O)N(C)CC(=O)NC2CC2)cc1OC	-2.0%	2.2%[56.1 µM]
O=C(O)[C@@H]1CCCC[C@@H]1C(=O)N1CCc2ccccc2C1CN1C(=O)c2ccccc2C1=O (stereo partly specified)	11.9%	6.1%
Cc1ccc(/C=N/N2CCN(Cc3ccc(Cl)cc3)CC2)o1	3.0%	-2.3%
COc1ccc(C(C(=O)NC(C)(C)C)N(C(=O)CNC(=O)c2cccs2)c2cccnc2)cc1OC (stereo unspecified)	-9.7%	-12.5%
Nn1c(SCC(=O)NC2CCCc3ccccc32)nnc1-c1cccs1 (stereo unspecified)	0.8%	1.0%
CC(=O)c1cn(CC(=O)NCc2ccco2)c2ccccc12	7.1%	-1.9%
O=C(O)c1ccccc1C(c1ccc(O)cc1)c1ccc(O)cc1	-1.2%&-6.4%	22.8%
CC(=O)NC(=S)Nc1ccc(NC(=O)c2cccnc2)cc1	-5.8%	.
Nc1ncn(C23CC4CC(CC(C4)C2)C3)n1	-1.0%	4.6%
COC(=O)C1=C(C)N(Cc2cccnc2)C(=O)C1	-1.9%	-5.7%
O=[N+]([O-])c1cc(-c2nc(-c3ccccc3)no2)ccc1NCc1ccco1	.	14.3%
COc1ccc(Nc2ncnc3scc(-c4ccc(OC)cc4)c23)cc1	10.0%	-2.7%
CCOc1ccc(S(=O)(=O)NCc2ccccc2OC)cc1	-7.4%	1.2%
CCc1[nH]nc(C(=O)NC2CCCN(Cc3ccccc3F)C2)c1C (stereo unspecified)	-3.4%	1.3%
C=C(C)CCC(C)N1CCC(n2nccc2NC(=O)CCOc2ccccc2)CC1 (stereo unspecified)	-7.3%	0.9%
Cc1ccc(C(=O)NCc2ccc(F)cc2)cc1NC1=NC2CS(=O)(=O)CC2S1 (stereo unspecified)	0.0%	.

2 entries from above, field by field.
> CC(=O)c1cn(CC(=O)NCc2ccco2)c2ccccc12
  N370S GC: 7.1% | TDP1 inh: -1.9%
> O=C(O)c1ccccc1C(c1ccc(O)cc1)c1ccc(O)cc1
  N370S GC: -1.2%&-6.4% | TDP1 inh: 22.8%
